Screens from PubChem BioAssay.
PI4K2A block – qHTS for small molecular inhibitors of PI4K2A; Phosphatidylinositol 4-kinase type 2-alpha (Homo sapiens), Q9BTU6; purified PI4K2A, ADP-Glo luminescence, 1 h; stronger effect = lower value; activity change, negative = inhibition, % at 76.9 µM; 420,000 compounds, 0.13% hits; AID 1346378, 2018; in the data active means activity change below about -50%; inconclusive means mostly about -30% to -49%;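 further: -100% = wells without enzyme as full effect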
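In this quantitative HTS, ADP production by PI4K2A was quantified luminescently after 1 h at ambient temperature; 100 microM adenosine served as plate-quality control.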
IDH1 R132H inh – qHTS for Inhibitors of mutant isocitrate dehydrogenase 1 (IDH1): qHTS; 390,000 compounds, 0.093% hits; IDH1-R132H enzyme, NADPH consumption, diaphorase/resazurin fluorescence; Isocitrate dehydrogenase [NADP] cytoplasmic (Homo sapiens), O75874; Potency, µM (highest dose often 76.6 µM), for inactives: at the highest dose activity change, negative = inhibition, usual class: inhibitors; further: potency means the concentration at half of the fitted maximal effect; on the % scale 0 is the no-effect control and ±100 the full control effect; nearly all actives have a fitted effect of over 65% in size
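IDH1-R132H (0.5 ug/mL dispensed) in pH 7.5 Tris buffer was preincubated 30 min with compound, then given a substrate mix of 0.016 mM NADPH and 2 mM alpha-KG for 80 min at room temperature; remaining NADPH was read by diaphorase/resazurin fluorescence.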
Glioma ERSR ind – qHTS for Inducers of the Endoplasmic Reticulum Stress Response (ERSR) in Human Glioma: qHTS. U87-MG GRP78 promoter luciferase reporter, 16 h. 420,000 compounds, 0.02% hits. AID 602332, 2012. Potency, µM, for inactives: at the highest dose activation, most hits filed as activators; further: potency means the concentration at half of the fitted maximal effect; series mostly up to about 76 µM; % of control where 0% means no effect; nearly all actives have a fitted effect of over 35% in size
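Stably transfected U87-MG glioma cells carrying a GRP78-based luciferase sensor; 16 h compound incubation. Luminescence end-point read 10 min after Bright-Glo addition at room temperature.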
Vif-APOBEC3G blk – qHTS for Inhibitors of Vif-A3G Interactions: qHTS; 410,000 compounds, 0.076% hits; AID 602310, 2012; Potency, µM (series often up to 46.1 µM), inactives show top-dose activity, negative = active, usual class: inhibitors; DNA dC->dU-editing enzyme APOBEC-3G (Homo sapiens), Q9HC16; HeLa A3G-eYFP + Vif (tagged APOBEC3G with the HIV-1 protein that degrades it), YFP fluorescence, overnight;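 further: potency means the concentration at half of the fitted maximal effect; on the % scale 0 is the no-effect control and ±100 the full control effect; nearly all actives have a fitted effect of over 60% in size; hits raise eYFP signal because A3G escapes Vif-driven loss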
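Read-out is eYFP fluorescence (Ex 488/Em 500-530) from Vif-expressing HeLa A3G-eYFP cells; more signal means A3G escaped Vif-mediated degradation. Cells plated overnight, compound pinned in, incubated overnight at 37 deg C.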
TrxR1 substrate – qHTS Assay for Substrates of Mammalian Selenoprotein Thioredoxin Reductase 1 (TrxR1): qHTS; Thioredoxin reductase 1, cytoplasmic (Rattus norvegicus), O89049; 390,000 compounds, 0.01% hits; purified TrxR1 substrate turnover, NADPH consumption readout; Potency, µM (series often up to 114 µM), without a hit: top-dose activity change, negative = substrate turnover; further: potency means the concentration at half of the fitted maximal effect; on the % scale 0 is the no-effect control and ±100 the full control effect; nearly all actives have a fitted effect of over 50% in size
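Rat TrxR1, dispensed at 90 nM, was prereduced with 400 uM NADPH (final) for 5 min at ~22 deg C, then incubated with compound 15 min before 400 uM selenite. A first-read NADPH fluorescence drop versus no-compound background flagged substrates.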
LDHA block – qHTS assay for inhibitors of human lactate dehydrogenase. purified LDHA, NADH/diaphorase-resazurin fluorescence; stronger effect = lower value. activity change, % (values are at about 110 or 230 µM). 480,000 compounds, 0.15% hits. AID 1347041, 2019; in the data active means activity change below about -30%; inconclusive means mostly about -25% to -30%;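 further: plate controls were DMSO wells for no effect and wells without enzyme for full effect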
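Human LDH5 (2 nM) was incubated with 0.06 mM NADH and 0.2 mM pyruvate for 5 min at room temperature in Tris pH 7.4. Remaining NADH was coupled through diaphorase/resazurin, and resorufin fluorescence was read at 0 and 20 min.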
Vif-A3F inh – qHTS for Inhibitors of Vif-A3F Interactions: qHTS | 390,000 compounds, 0.2% hits | Potency, µM (doses to about 46.1 µM), inactives show at the highest dose activity, negative = active | AID 602313, 2012 | HeLa A3F-eYFP + Vif (tagged APOBEC3F with the HIV-1 protein that degrades it), YFP fluorescence increase; further: potency means the concentration at half of the fitted maximal effect; % of control where 0% means no effect; nearly all actives have a fitted effect of over 65% in size
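Fluorescence increase (Ex 488/Em 500-530) after overnight compound treatment at 37 deg C flags inhibition of Vif-driven A3F-eYFP loss in stable HeLa A3F-eYFP/Vif cells seeded overnight beforehand.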
RXFP1 ag – qHTS Assay for Agonists of the Relaxin Receptor RXFP1; HEK293T-RXFP1 cAMP TR-FRET, 30 min; response scale: percent of porcine relaxin response, buffer zero; Potency, µM (series often up to 57.5 µM), inactives show at the highest dose activation, most hits filed as activators; 370,000 compounds, 0.3% hits; AID 2676, 2010; further: potency means the concentration at half of the fitted maximal effect; on the % scale 0 is the no-effect control and ±100 the full control effect; nearly all actives have a fitted effect of over 60% in size; many of its hits are not listed in these tables
Target sequence (Q9HBX9 whole entry, looked up): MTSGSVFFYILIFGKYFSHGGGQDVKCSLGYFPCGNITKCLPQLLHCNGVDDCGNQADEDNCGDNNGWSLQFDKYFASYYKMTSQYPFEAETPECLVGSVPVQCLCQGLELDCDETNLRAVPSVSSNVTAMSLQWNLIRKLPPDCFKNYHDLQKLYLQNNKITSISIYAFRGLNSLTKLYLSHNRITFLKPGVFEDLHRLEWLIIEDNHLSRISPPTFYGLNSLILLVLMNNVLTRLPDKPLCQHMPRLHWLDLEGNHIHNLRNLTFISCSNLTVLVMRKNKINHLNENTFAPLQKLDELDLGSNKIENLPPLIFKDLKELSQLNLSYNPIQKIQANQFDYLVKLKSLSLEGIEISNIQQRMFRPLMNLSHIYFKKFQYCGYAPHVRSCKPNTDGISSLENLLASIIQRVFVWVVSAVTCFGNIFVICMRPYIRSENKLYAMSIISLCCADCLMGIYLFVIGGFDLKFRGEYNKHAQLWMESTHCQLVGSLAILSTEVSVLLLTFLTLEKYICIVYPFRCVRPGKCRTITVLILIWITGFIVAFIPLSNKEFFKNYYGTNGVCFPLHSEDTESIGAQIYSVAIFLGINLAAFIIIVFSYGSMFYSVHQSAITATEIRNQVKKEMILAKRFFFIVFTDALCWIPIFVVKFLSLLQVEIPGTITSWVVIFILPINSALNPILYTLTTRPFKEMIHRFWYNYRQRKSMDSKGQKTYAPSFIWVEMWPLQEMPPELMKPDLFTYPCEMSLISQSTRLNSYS
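HEK293 cells stably expressing RXFP1, treated 30 min at 37C with compounds plus PDE4 inhibitor Ro 20174; cAMP measured by HTRF TR-FRET. Normalized to buffer and 29 nM porcine relaxin; EC50 by Hill fit.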
The depositor's hits bear a star; & = joins results of further samples; [ ] = another dose, or the depositor's remark. Unless noted, the call rests on the fitted dose curve; in most records, active means well fitted curve in the direction sought with a large enough effect; inconclusive means small, poorly fitted or top-dose-only effect, or another doubt; inactive means no such curve, though single readings can be large; an effect the other way counts as inactive or inconclusive. An excerpt (hit frequency here may not be typical).

Results for O=C(CCC(=O)N1CCOc2ccc(Cl)cc21)NCCN1CCOCC1 ?
PI4K2A block: 2; IDH1 R132H inh: -4%; Glioma ERSR ind: -2%; Vif-APOBEC3G blk: 2%; TrxR1 substrate: 9%[57.1 µM]; LDHA block: -7; Vif-A3F inh: 3%; RXFP1 ag: 2.7%

What do the screens show for `COc1ccc(NC(=O)c2cc3c(s2)CCC3)cc1S(=O)(=O)N1CCOCC1`?
PI4K2A block: inconclusive; IDH1 R132H inh: -4%; Glioma ERSR ind: -3%; Vif-APOBEC3G blk: 2%; TrxR1 substrate: -6%; LDHA block: -5; Vif-A3F inh: -4%; RXFP1 ag: 1.4%

How did CCOc1cccc2cc(-c3nc4sc5c(c4c(=O)[nH]3)CCC(C(C)(C)C)C5)c(=O)oc12 (centres undefined) do in these assays?
PI4K2A block: -1; IDH1 R132H inh: -12%; Glioma ERSR ind: -3%; Vif-APOBEC3G blk: 4%; TrxR1 substrate: 13%; LDHA block: 0; Vif-A3F inh: -7%; RXFP1 ag: 0.5%

What do the screens show for `COc1ccc(CN2C(=O)c3ccccc3C(/C=N\OCc3ccc(F)cc3)C2=O)cc1` (centres undefined)?
PI4K2A block: -26; IDH1 R132H inh: 8%; Glioma ERSR ind: -5%; Vif-APOBEC3G blk: -6%; TrxR1 substrate: -6%; LDHA block: -1; Vif-A3F inh: -7%; RXFP1 ag: 0.1%

What do the screens show for `COc1cc(OC)c(N(C)C(=O)c2c(C)oc3ncnc(N4CCCCC4)c23)cc1Cl`?
PI4K2A block: 2; IDH1 R132H inh: -9%; Glioma ERSR ind: -3%; Vif-APOBEC3G blk: 3%; TrxR1 substrate: -7%; LDHA block: -12; Vif-A3F inh: -3%; RXFP1 ag: -4.3%

What do the screens show for `CCCCCc1ccc(-c2ccc(=O)[nH]n2)cc1`?
PI4K2A block: 0; IDH1 R132H inh: 3%; Glioma ERSR ind: 9%; Vif-APOBEC3G blk: -1%; TrxR1 substrate: 11%[0.457 µM]; LDHA block: -2; Vif-A3F inh: 5%; RXFP1 ag: 3.7%

Results for CCOc1ccc(NC(=O)C(C)N2C(=O)c3ccccc3S2(=O)=O)cc1 (centres undefined) ?
PI4K2A block: 6; IDH1 R132H inh: 2%; Glioma ERSR ind: 3%; Vif-APOBEC3G blk: -1%; TrxR1 substrate: 0%; LDHA block: -2; Vif-A3F inh: 2%; RXFP1 ag: 0.3%

How did COc1cccc(C2C(C(=O)Nc3cccnc3)=C(C)Nc3nnnn32)c1OC (centres undefined) do in these assays?
PI4K2A block: 0; IDH1 R132H inh: -2%; Glioma ERSR ind: -4%; Vif-APOBEC3G blk: 1%; TrxR1 substrate: 0%; LDHA block: -5; Vif-A3F inh: -1%; RXFP1 ag: 2.5%

Results for CCCCC1=CC2=CC(=O)C(C)(OC(=O)CC)C(=O)C2=CN1CCOC (centres undefined) ?
PI4K2A block: -8; IDH1 R132H inh: 23%; Glioma ERSR ind: -2%; Vif-APOBEC3G blk: -3%; TrxR1 substrate: 0%; LDHA block: 17; Vif-A3F inh: 1%; RXFP1 ag: 1.1%

How did Cc1ccc(CNC(=O)Nc2cn(CC(C)C)c(=O)c3ccccc23)cc1 do in these assays?
PI4K2A block: inconclusive; IDH1 R132H inh: inconclusive; Glioma ERSR ind: -4%; Vif-APOBEC3G blk: 0%; TrxR1 substrate: 35%[activator]; LDHA block: 8; Vif-A3F inh: 12%; RXFP1 ag: -0.9%

How did Cc1c(OCC(=O)N2CCC(C(N)=O)CC2)ccc2c1oc(=O)c1ccccc12 do in these assays?
PI4K2A block: -1; IDH1 R132H inh: -11%; Glioma ERSR ind: 0%; Vif-APOBEC3G blk: -1%; TrxR1 substrate: 186%[activator]; LDHA block: -3; Vif-A3F inh: -2%; RXFP1 ag: 19%

What do the screens show for `CC(=O)Nc1ccc(S(=O)(=O)N(C)CC(=O)NNc2c(F)c(F)cc(F)c2F)cc1`?
PI4K2A block: -5; IDH1 R132H inh: -6%; Glioma ERSR ind: -3%; Vif-APOBEC3G blk: -6%; TrxR1 substrate: -3%; LDHA block: -2; Vif-A3F inh: 0%

Compounds shown so far that have four or more nitrogen atoms (3):
What do the screens show for `COc1cc(OC)c(N(C)C(=O)c2c(C)oc3ncnc(N4CCCCC4)c23)cc1Cl`?
PI4K2A block: 2; IDH1 R132H inh: -9%; Glioma ERSR ind: -3%; Vif-APOBEC3G blk: 3%; TrxR1 substrate: -7%; LDHA block: -12; Vif-A3F inh: -3%; RXFP1 ag: -4.3%

How did COc1cccc(C2C(C(=O)Nc3cccnc3)=C(C)Nc3nnnn32)c1OC (centres undefined) do in these assays?
PI4K2A block: 0; IDH1 R132H inh: -2%; Glioma ERSR ind: -4%; Vif-APOBEC3G blk: 1%; TrxR1 substrate: 0%; LDHA block: -5; Vif-A3F inh: -1%; RXFP1 ag: 2.5%

What do the screens show for `CC(=O)Nc1ccc(S(=O)(=O)N(C)CC(=O)NNc2c(F)c(F)cc(F)c2F)cc1`?
PI4K2A block: -5; IDH1 R132H inh: -6%; Glioma ERSR ind: -3%; Vif-APOBEC3G blk: -6%; TrxR1 substrate: -3%; LDHA block: -2; Vif-A3F inh: 0%

(continued)
How did COCCS(=O)(=O)N(Cc1ccccc1)[C@H](C(=O)OC)C(C)C do in these assays?
PI4K2A block: 6; IDH1 R132H inh: 11%; Glioma ERSR ind: -6%; Vif-APOBEC3G blk: 3%; TrxR1 substrate: -6%; LDHA block: -2; Vif-A3F inh: 4%

What do the screens show for `C[C@H](NC(=O)c1nc[nH]c1C(=O)N[C@H](C)c1ccccc1)C(=O)OC(C)(C)C`?
PI4K2A block: 0; IDH1 R132H inh: -16%; Glioma ERSR ind: -2%; Vif-APOBEC3G blk: 3%; TrxR1 substrate: -11%; LDHA block: 0; Vif-A3F inh: -2%; RXFP1 ag: -0.8%

Results for CC(=O)Cc1nsc(NC(=O)c2ccc(-c3cc(Cl)ccc3Cl)o2)n1 ?
PI4K2A block: -21; IDH1 R132H inh: 12%; Glioma ERSR ind: 1%; Vif-APOBEC3G blk: inconclusive; TrxR1 substrate: 6%; LDHA block: -7; Vif-A3F inh: -1%; RXFP1 ag: 4.7%

How did O=C(NC1CCCC1)C1CCN(C(=O)c2ccc(Cl)cc2Cl)CC1 do in these assays?
PI4K2A block: 0; IDH1 R132H inh: 5%; Glioma ERSR ind: -3%; Vif-APOBEC3G blk: -1%; TrxR1 substrate: 6%; LDHA block: -2; Vif-A3F inh: 0%; RXFP1 ag: -0.3%

What do the screens show for `Cc1ccc(NC(=O)c2cccc(C(=O)Nc3ccc(C)cc3C(=O)O)c2)c(C(=O)O)c1`?
PI4K2A block: 3; IDH1 R132H inh: 8%; Glioma ERSR ind: -6%; Vif-APOBEC3G blk: 8%; TrxR1 substrate: -17%; LDHA block: 6; Vif-A3F inh: 10%; RXFP1 ag: -4.6%

How did CC(=O)Nc1ccc(S(=O)(=O)Nc2nc3ccccc3nc2Nc2cccc(O)c2)cc1 do in these assays?
PI4K2A block: -4; IDH1 R132H inh: -1%; Glioma ERSR ind: 3%; Vif-APOBEC3G blk: -7%; TrxR1 substrate: 1%; LDHA block: -7; Vif-A3F inh: -30%; RXFP1 ag: 6.3%

What do the screens show for `CC(NC(=O)C(C)N1c2cccc3cccc(c23)S1(=O)=O)c1ccccc1` (centres undefined)?
PI4K2A block: 3; IDH1 R132H inh: 30%; Glioma ERSR ind: -4%; Vif-APOBEC3G blk: -6%; TrxR1 substrate: 8%; LDHA block: 9; Vif-A3F inh: -6%; RXFP1 ag: -1.4%

What do the screens show for `CCOC(=O)[C@@H](C)N(C(=O)OC(C)(C)C)S(=O)(=O)N(Cc1ccccc1)[C@H](C(=O)OC)C(C)C`?
PI4K2A block: -4; IDH1 R132H inh: 6%; Glioma ERSR ind: -1%&-3%; Vif-APOBEC3G blk: -2%&1%; TrxR1 substrate: -2%&3%; LDHA block: 2; Vif-A3F inh: -10%

Results for CC(C)Cn1cc(NC(=O)NCc2ccccc2Cl)c2ccccc2c1=O ?
PI4K2A block: inconclusive; IDH1 R132H inh: -26%; Glioma ERSR ind: -1%; Vif-APOBEC3G blk: -3%; TrxR1 substrate: 4%; LDHA block: 6; Vif-A3F inh: 6%; RXFP1 ag: 5.3%

How did COc1ccc(CN2CCN(CC(O)Cn3c4ccccc4c4ccccc43)CC2)cc1 (centres undefined) do in these assays?
PI4K2A block: -8; IDH1 R132H inh: 2%; Glioma ERSR ind: -6%; Vif-APOBEC3G blk: 2%; TrxR1 substrate: -5%; LDHA block: 1; Vif-A3F inh: -18%; RXFP1 ag: 2.1%

What do the screens show for `CCc1ccc(OCC(O)CN2CCN(c3ccccn3)CC2)cc1` (centres undefined)?
PI4K2A block: -1; IDH1 R132H inh: 3%; Glioma ERSR ind: 2%; Vif-APOBEC3G blk: 0%; TrxR1 substrate: 5%; LDHA block: -2; Vif-A3F inh: 0%; RXFP1 ag: -0.7%
